Bioassay records as filed in PubChem.
Vaccinia inh = blocks a specific stage of Vaccinia orthopoxvirus infection; Vaccinia-infected cells, mCherry/Venus stage reporter fluorescence; active compounds read low; some inactives read as strong as hits; activity change (mCherry), % (no concentration beside the values); 0.01% of 89,000 active;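 active = mCherry past -33% and 40 or more points under the early reporter, replicates agreeing; inconclusive = past -33% without that gap or agreement; tested in A549 cells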;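 note: scaled between vehicle wells and reference inhibitor wells; 23 nL library stock went into each well; one replicate is shown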
Vaccinia inh Venus = also measured in Vaccinia inh; calls as there; activity change (Venus), %; measured here: Venus reporter, other viral stage;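 negative = less Venus signal; first of two replicates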
* = called active by the depositor; ? = inconclusive; · = not tested or not shown.

SMILES | Vaccinia inh | Vaccinia inh Venus
CN(C)CCCNC(=O)C[C@@H]1CC[C@H]2[C@@H](COc3ccc(NC(=O)C4CCC4)cc3C(=O)N2C)O1 | 4.3 | 0.4
CS(=O)(=O)N1[C@H](C(=O)NCc2ccncc2)[C@@H](CO)[C@@H]2Cn3c(ccc(C4=CCCCC4)c3=O)[C@@H]21 | 9.2 | -1.9
Cc1ccc(S(=O)(=O)N[C@H]2CC[C@H](CCn3cc(C4CC4)nn3)O[C@@H]2CO)cc1 | -11.8 | -10.1
CC(C)NC(=O)N(C)C[C@@H]1Oc2c(NC(=O)c3ccncc3)cccc2C(=O)N([C@@H](C)CO)C[C@H]1C | -1.4 | -0.2
C[C@@H]1CN([C@H](C)CO)S(=O)(=O)c2ccc(Br)cc2O[C@H]1CN(C)S(=O)(=O)c1ccccc1 | -11.2 | -10.5
O=S(=O)(N[C@@H]1CC[C@H](CCn2cc(-c3cccnc3)nn2)O[C@H]1CO)c1ccc(F)cc1 | 9.3 | 5.3
C/C=C/c1ccc([C@H]2[C@H](CO)N(C(C)=O)[C@H]2CNC(=O)CC2CC2)cc1 | 1.9 | 0.9
CCS(=O)(=O)N[C@H]1C=C[C@@H](CC(=O)Nc2ccc(-c3ccccc3)cc2)O[C@@H]1CO | 9.0 | 8.0
C[C@H](CO)N1C[C@H](C)[C@H](CN(C)S(C)(=O)=O)OCCCC[C@H](C)Oc2ccc(NS(=O)(=O)c3cn(C)cn3)cc2C1=O | 14.9 | 11.9
CCC(=O)N(C)C[C@H]1Oc2ncc(C#Cc3ccccc3)cc2C(=O)N([C@@H](C)CO)C[C@H]1C | 3.5 | 1.2
C[C@@H]1CN([C@H](C)CO)S(=O)(=O)c2ccc(-c3cccnc3)cc2O[C@H]1CN(C)Cc1cncnc1 | 13.9 | 10.4
C[C@H](CO)N1C[C@H](C)[C@@H](CN(C)S(=O)(=O)c2cn(C)cn2)Oc2cc(C#Cc3ccccc3)ccc2S1(=O)=O | -24.7 | -24.3
C[C@@H]1CN([C@H](C)CO)C(=O)c2c(c3ccccc3n2C)-c2ccccc2CO[C@H]1CN(C)S(C)(=O)=O | 5.3 | -3.9
CCC(=O)N1C[C@@H](O)COC[C@H]2O[C@@H](CC(=O)NCc3cc(F)cc(F)c3)CC[C@@H]21 | -1.2 | 2.0
O=C(c1ccccn1)N1CC(=O)N2[C@@H](CO)[C@H](c3ccc(C#CC4CCCC4)cc3)[C@@H]2C1 | -10.9 | -15.7
O=C(C[C@@H]1C[C@@H]2c3cc(NC(=O)Nc4ccc(C(F)(F)F)cc4)ccc3O[C@@H]2[C@H](CO)O1)NC1CCCCC1 | 1.4 | 5.8
C[C@@H]1CN([C@H](C)CO)C(=O)c2c(c3ccccc3n2C)-c2ccccc2CO[C@H]1CN(C)Cc1cccc(O)c1 | -29.3 | -19.5
CC(C)NC(=O)Nc1cccc2c1O[C@H](CN(C)CC1CCCCC1)[C@H](C)CN([C@H](C)CO)C2=O | 11.0 | 10.4
C[C@@H](O)C#Cc1ccc([C@H]2[C@@H](CO)N3CCCCN(CC4CC4)C[C@H]23)cc1 | 15.5 | 7.2
CN(C)CC#Cc1ccc([C@H]2[C@@H](CO)N(C(=O)C3CCC3)[C@H]2C#N)cc1 | -3.2 | -5.1
C[C@@H]1CN([C@H](C)CO)C(=O)c2cc(C#CCc3ccccc3)cnc2O[C@@H]1CN(C)Cc1ccc(C(=O)O)cc1 | 7.0 | 2.4
C[C@@H]1CN([C@H](C)CO)C(=O)CCCn2nncc2CO[C@@H]1CN(C)C | 5.7 | 5.0
CN(C)C(=O)c1cccc(-c2ccc([C@H]3[C@H](CO)N4C(=O)CN(C(=O)CC5CC5)C[C@@H]34)cc2)c1 | 16.9 | 7.3
O=C(O)C[C@H]1CC[C@H]2[C@@H](COC[C@H](O)CN2S(=O)(=O)c2ccc(F)cc2)O1 | 9.8 | 5.9
C[C@H](CO)N1C[C@H](C)[C@H](CN(C)Cc2ccc(C(=O)O)cc2)Oc2ccc(NC(=O)Cn3cnnn3)cc2C1=O | -5.4 | -4.7

Exported with values under each structure: part of the list above.
Below each compound: Vaccinia inh, Vaccinia inh Venus
- CCC(=O)N1C[C@@H](O)COC[C@H]2O[C@@H](CC(=O)NCc3cc(F)cc(F)c3)CC[C@@H]21
    -1.2, 2.0
- O=C(c1ccccn1)N1CC(=O)N2[C@@H](CO)[C@H](c3ccc(C#CC4CCCC4)cc3)[C@@H]2C1
    -10.9, -15.7
- O=C(C[C@@H]1C[C@@H]2c3cc(NC(=O)Nc4ccc(C(F)(F)F)cc4)ccc3O[C@@H]2[C@H](CO)O1)NC1CCCCC1
    1.4, 5.8
- C[C@@H]1CN([C@H](C)CO)C(=O)c2c(c3ccccc3n2C)-c2ccccc2CO[C@H]1CN(C)Cc1cccc(O)c1
    -29.3, -19.5
- CC(C)NC(=O)Nc1cccc2c1O[C@H](CN(C)CC1CCCCC1)[C@H](C)CN([C@H](C)CO)C2=O
    11.0, 10.4
- C[C@@H](O)C#Cc1ccc([C@H]2[C@@H](CO)N3CCCCN(CC4CC4)C[C@H]23)cc1
    15.5, 7.2
- CN(C)CC#Cc1ccc([C@H]2[C@@H](CO)N(C(=O)C3CCC3)[C@H]2C#N)cc1
    -3.2, -5.1
- C[C@@H]1CN([C@H](C)CO)C(=O)c2cc(C#CCc3ccccc3)cnc2O[C@@H]1CN(C)Cc1ccc(C(=O)O)cc1
    7.0, 2.4
- C[C@@H]1CN([C@H](C)CO)C(=O)CCCn2nncc2CO[C@@H]1CN(C)C
    5.7, 5.0
- CN(C)C(=O)c1cccc(-c2ccc([C@H]3[C@H](CO)N4C(=O)CN(C(=O)CC5CC5)C[C@@H]34)cc2)c1
    16.9, 7.3
- O=C(O)C[C@H]1CC[C@H]2[C@@H](COC[C@H](O)CN2S(=O)(=O)c2ccc(F)cc2)O1
    9.8, 5.9
- C[C@H](CO)N1C[C@H](C)[C@H](CN(C)Cc2ccc(C(=O)O)cc2)Oc2ccc(NC(=O)Cn3cnnn3)cc2C1=O
    -5.4, -4.7

The results go on.
SMILES | Vaccinia inh | Vaccinia inh Venus
COCC(=O)N1C[C@@H]2[C@H](c3ccccc31)[C@H](CO)N2Cc1ccc(OC)cc1 | 8.1 | 11.2
C[C@H](CO)N1C[C@H](C)[C@@H](CN(C)Cc2ccc(C(F)(F)F)cc2)Oc2c(NC(=O)C3CCOCC3)cccc2C1=O | -9.3 | -4.0
C[C@@H]1CN([C@H](C)CO)C(=O)c2cccc(NC(=O)C3CCCCC3)c2O[C@@H]1CN(C)Cc1ccc(Cl)c(Cl)c1 | -12.1 | -10.3
COc1ccc(S(=O)(=O)Nc2ccc3c(c2)C(=O)N([C@@H](C)CO)C[C@@H](C)[C@H](CN(C)C(=O)Nc2c(C)noc2C)OCCCC[C@H](C)O3)cc1 | 15.1 | 9.2
CCCNC(=O)N[C@@H]1CC[C@@H](CCNS(=O)(=O)c2cccc(F)c2)O[C@@H]1CO | -0.6 | -0.5
COCCNC(=O)C[C@H]1CC[C@H]2[C@@H](COc3ccc(NC(=O)CC(F)(F)F)cc3C(=O)N2C)O1 | 17.1 | -3.0
O=C(c1ccncc1)N1CC2(C1)[C@@H](c1ccccc1)[C@@H](CO)N2C(=O)c1ccncc1 | -3.2 | -1.9
COc1ccc(NC(=O)N(C)C[C@@H]2Oc3ccc(NC(=O)Cc4cn(C)c5ccccc45)cc3C(=O)N([C@H](C)CO)C[C@H]2C)cc1 | 10.9 | 6.4
CO[C@H]1CC[C@@H]2CCOc3ccc(C#N)cc3C(=O)N(C)C[C@@H](C)C(=O)N(C)C[C@H]1O2 | 18.0 | 5.5
CNC[C@@H]1Oc2ccc(N(C)C)cc2CC(=O)N([C@@H](C)CO)C[C@H]1C | 18.0 | 9.1
C[C@@H]1CN([C@@H](C)CO)C(=O)Cc2cc(NC(=O)CCCCCC(=O)Nc3ccccc3N)ccc2O[C@@H]1CN(C)Cc1ccccc1 | -21.8 | -16.9
O=C(Cc1cccnc1)N1CCCCN2[C@@H](CO)[C@@H](c3ccc(/C=C/c4ccccc4)cc3)[C@@H]2C1 | ? | ·
O=C(C[C@H]1CC[C@@H](NS(=O)(=O)c2ccccc2)[C@@H](CO)O1)NCc1ccncn1 | 13.2 | 16.7
COc1ccc(NC(=O)N[C@@H]2CC[C@H](CC(=O)NC3CCC3)O[C@H]2CO)cc1 | 6.7 | 10.0
COCC#Cc1ccc(CC[C@H]2O[C@H]3CC[C@@H](CO)O[C@H]3C[C@@H]2n2cc(C(C)(C)O)nn2)cc1 | 21.8 | 7.2
CCCNC(=O)Nc1ccc2c(c1)OC[C@H](C)N(C(=O)C1CC1)C[C@@H](C)[C@H](OC)CN(C)C2=O | 4.8 | 3.4
O=C(C[C@H]1C=C[C@@H](NC(=O)c2ccccc2)[C@H](CO)O1)NCc1ccc(Oc2ccccc2)cc1 | 5.2 | 7.4
COc1ccccc1C(=O)Nc1ccc2c(c1)C(=O)N(C)C[C@@H](OC)[C@@H](C)CN(C(C)=O)[C@H](C)CO2 | 3.6 | 11.5
COc1ccc(CN(C)C[C@@H]2OCCCC[C@@H](C)Oc3ccc(NC(=O)Nc4ccc5c(c4)OCO5)cc3C(=O)N([C@H](C)CO)C[C@H]2C)cc1 | ? | ·
CO[C@@H]1CN(C)C(=O)c2cc(NS(=O)(=O)c3ccccc3Cl)ccc2OC[C@H](C)NC[C@H]1C | -1.9 | 4.0
COc1ccc(CN(C)C[C@H]2Oc3ccc(NS(=O)(=O)c4ccc(OC)cc4)cc3CC(=O)N([C@@H](C)CO)C[C@H]2C)cc1 | -6.4 | -1.2
C[C@H](O)C#Cc1ccc([C@@H]2[C@H]3CN(C(=O)c4cccc(F)c4)CCCCN3[C@H]2CO)cc1 | -23.1 | -15.8
COCC(=O)N1[C@H](C(=O)N2CCCCC2)[C@@H](CO)[C@@H]2Cn3c(ccc(C4=CCCC4)c3=O)[C@@H]21 | 21.1 | 6.9
COc1cccc(S(=O)(=O)N2CC[C@@H]3[C@H](CO)Nc4ccc(C#Cc5ccccc5)cc4[C@@H]32)c1 | 9.4 | 8.1
Cc1cccc(-c2ccc([C@H]3[C@H]4CN(Cc5ccncc5)CCCCN4[C@H]3CO)cc2)c1 | -34.5 | -30.0

(listing goes on)
SMILES | Vaccinia inh | Vaccinia inh Venus
COc1ccccc1C#Cc1cnc2c(c1)C(=O)N([C@@H](C)CO)C[C@H](C)[C@@H](CN(C)S(=O)(=O)c1cn(C)cn1)O2 | -4.4 | 8.0
C[C@@H]1CN([C@@H](C)CO)S(=O)(=O)c2ccc(C#CCN(C)C)cc2O[C@@H]1CN(C)Cc1ccccc1 | -21.5 | -17.4
O=C(C[C@H]1CC[C@H](NC(=O)Cc2ccccn2)[C@H](CO)O1)NCCc1ccncc1 | -5.1 | -8.2
C[C@@H]1CN([C@@H](C)CO)C(=O)c2cc(NC(=O)C3CCCCC3)ccc2O[C@@H]1CN(C)Cc1ccc(-c2ccccc2)cc1 | 45.5 | 17.6
COc1cccc(CNC(=O)C[C@H]2CC[C@@H]3[C@H](COc4ccc(NC(=O)c5cccs5)cc4C(=O)N3C)O2)c1 | -5.8 | 7.4
C[C@@H](NC(=O)C[C@@H]1C[C@H]2c3cc(NC(=O)C4CCOCC4)ccc3O[C@H]2[C@@H](CO)O1)c1ccccc1 | -5.7 | 6.2
C[C@@H]1CCCCO[C@@H](CN(C)C(=O)CCC(F)(F)F)[C@@H](C)CN([C@H](C)CO)C(=O)c2cc(NS(=O)(=O)c3ccccc3)ccc2O1 | 7.1 | 0.2
C[C@@H]1CN([C@@H](C)CO)S(=O)(=O)c2ccc(C#Cc3ccccn3)cc2O[C@@H]1CN(C)Cc1ccccc1 | -22.3 | -5.6
CS(=O)(=O)Nc1ccc2c(c1)[C@H]1C[C@@H](CC(=O)NCc3cc(F)ccc3F)O[C@@H](CO)[C@H]1O2 | 10.1 | 8.5
COc1cccc(-c2ccc3c(c2)[C@@H]2[C@@H](CCN2C(=O)c2cccc(F)c2)[C@H](CO)N3)c1 | -29.0 | -17.9
C[C@H](CO)N1C[C@H](C)[C@@H](CN(C)C)Oc2ncc(-c3ccccc3)cc2C1=O | 9.9 | 3.1
C[C@@H]1CN([C@H](C)CO)S(=O)(=O)c2ccc(-c3ccccc3)cc2O[C@@H]1CN(C)C(=O)CN(C)C | -0.9 | -5.5
CCC(=O)N(C)C[C@@H]1Oc2cc(C#Cc3ccncc3)ccc2S(=O)(=O)N([C@@H](C)CO)C[C@@H]1C | -29.0 | -6.6
Cc1noc(C)c1NC(=O)Nc1ccc2c(c1)C(=O)N([C@@H](C)CO)C[C@@H](C)[C@H](CN(C)S(=O)(=O)c1ccc(Cl)cc1)O2 | 1.0 | 0.2
O=C(CC1CC1)N1CC(=O)N2[C@H](CO)[C@@H](c3ccc(-c4cccnc4)cc3)[C@@H]2C1 | 21.3 | 4.6

The list is partial; count on the stated rates, not on these rows.
